VDR inh – Inhibitors of the vitamin D receptor (VDR): qHTS; actives 0.93% (n = 400,000); Vitamin D3 receptor (Homo sapiens), P11473; Potency, µM, inactives show max response, negative = inhibition, usual class: inhibitors; VDR-SRC2-3 peptide fluorescence polarization, 2 h; active means well fitted inhibition curve with a large enough effect; inconclusive means small, poorly fitted or top-dose-only effect, or another doubt; inactive means no such curve, though single readings can be large or run the other way; further: series mostly up to about 120 µM
Target sequence (P11473 whole entry, looked up): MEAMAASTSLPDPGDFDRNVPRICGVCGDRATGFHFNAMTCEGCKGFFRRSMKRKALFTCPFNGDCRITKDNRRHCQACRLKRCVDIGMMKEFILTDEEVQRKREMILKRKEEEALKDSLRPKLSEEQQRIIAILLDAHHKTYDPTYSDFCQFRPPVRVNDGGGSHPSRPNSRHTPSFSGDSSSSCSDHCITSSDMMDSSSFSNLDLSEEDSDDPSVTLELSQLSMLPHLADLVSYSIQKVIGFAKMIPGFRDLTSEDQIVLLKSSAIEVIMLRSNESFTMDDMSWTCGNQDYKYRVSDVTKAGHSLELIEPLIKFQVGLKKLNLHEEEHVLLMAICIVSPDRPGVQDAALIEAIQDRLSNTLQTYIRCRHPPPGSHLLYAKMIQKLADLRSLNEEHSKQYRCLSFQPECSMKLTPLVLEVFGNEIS
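Fluorescence polarization assay measuring small-molecule disruption of VDR binding to the coregulator peptide SRC2-3. Compounds were pin-transferred (23 nl) into the reagent mix and incubated 2 h at room temperature before reading.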
The depositor's hits bear a star; u = inconclusive; & = joins results of further samples; [ ] = remark or other dose. On the % scale 0 is the no-effect control and ±100 the full control effect; potency means the concentration at half of the fitted maximal effect. A portion of the library; rates above refer to the full screens.

Preview:
SMILES | VDR inh
COc1ccc(N(CC(=O)NCCSc2ccccc2)S(=O)(=O)c2ccccc2)cc1 | 17%
O=C1CN(C(=O)c2cc(Br)c(Br)s2)c2ccccc2N1 | 3%
Cc1ccccc1NS(=O)(=O)c1nnc(NC(=O)c2ccco2)s1 | 7%
CCCCN(C)Cc1c(C)[nH]c2c(ccc3ccccc32)c1=O | 2%
O=c1ccc(NS(=O)(=O)c2ccccc2Cl)cn1Cc1ccc(Cl)c(Cl)c1 | 16µM*

Main list, from the start:
SMILES | VDR inh
COc1ccc(N(CC(=O)NCCSc2ccccc2)S(=O)(=O)c2ccccc2)cc1 | 17%
O=C1CN(C(=O)c2cc(Br)c(Br)s2)c2ccccc2N1 | 3%
Cc1ccccc1NS(=O)(=O)c1nnc(NC(=O)c2ccco2)s1 | 7%
CCCCN(C)Cc1c(C)[nH]c2c(ccc3ccccc32)c1=O | 2%
O=c1ccc(NS(=O)(=O)c2ccccc2Cl)cn1Cc1ccc(Cl)c(Cl)c1 | 16µM*
CCOC(=O)C1CCN(C(=O)COC(=O)COc2ccc(Cl)cc2)CC1 | -1%
CN=C1S/C(=C\c2cn(CC(=O)OC)c3ccccc23)C(=O)N1C | 16%
Cc1ccc(S(=O)(=O)CC(=O)Nc2sc(C)c(C)c2C(N)=O)cc1 | 3%
O=S(=O)(Nc1ccc2c(c1)OCO2)c1cccc(Br)c1 | -6%
O=S(=O)(c1ccc2nc(N3CCN(c4ccccc4F)CC3)ccc2c1)N1CCCCC1 | 1%&18%
O=C(O)/C=C/c1nc(-c2ccccc2)n2ccccc12 | u
CCO[C@@H]1OC(C(=O)O)=C[C@H](C)[C@H]1CCCO | -11%
CN1CCSc2ccc(C(=O)NCc3cccc(F)c3)cc21 | -1%
O=C(CCNS(=O)(=O)c1ccccc1F)N1CCN(C(c2ccccc2)c2ccccc2)CC1 | 3%
O=C(N/N=C/c1cc(Cl)cc([N+](=O)[O-])c1O)C1CC1 | -23%
COc1ccccc1NC(=O)N(Cc1ccccc1)c1ccccn1 | -3%
O=C(O)c1ccccc1C(=O)NNC(=O)C(c1ccccc1)c1ccccc1 | 8%
Cc1cc(C)nc(/N=C(\N)Nc2ccc(C)c([N+](=O)[O-])c2)n1 | 6%
Cc1cc(/C=C2/SC(=O)NC2=O)c(C)n1-c1ccc(N2CCOCC2)cc1 | -12%
O=C(COC(=O)CNS(=O)(=O)/C=C/c1ccccc1)Nc1cccc2ccccc12 | -1%
Cc1nc2ccc([N+](=O)[O-])cc2nc1C | 15%
O=C(CSc1nc2ccccc2n1CC(=O)N1CCCC1)N1CCN(C(=O)c2ccco2)CC1 | 8%
CCOc1c(Br)cc(/C=C2\C(=O)N(CCC#N)N=C2C)cc1OC | u
Cc1ccc(NC(=O)CSc2nccn2Cc2ccco2)cc1 | -3%
Cn1c(N)c(C(=O)CSc2nnc(C3CC3)n2Cc2ccccc2)c(=O)[nH]c1=O | 3%
CCC(C)Sc1ccc(-c2nc3ccc(C)cn3c2NCc2ccccc2)cc1 (stereo not drawn) | -8%
CC(C)c1ccc(NC2CCCN(C(=O)CCCn3cncn3)C2)cc1 (stereo not drawn) | -14%
CC(C)Cn1nc(C(=O)OCC(=O)NCC(F)(F)F)c2ccccc2c1=O | 3%
Cc1ccc(NC(=S)NC(=O)C2CCC2)cc1C | -14%
COc1cccc(CC2(CO)CCN(Cc3cn(C)nc3C)CC2)c1 | 5%

Individual results from the list.
Under VDR inh, CCOC(=O)C1CCN(C(=O)COC(=O)COc2ccc(Cl)cc2)CC1 has the entry -1%
Under VDR inh, O=C(N/N=C/c1cc(Cl)cc([N+](=O)[O-])c1O)C1CC1 has the entry -23%
Under VDR inh, CCO[C@@H]1OC(C(=O)O)=C[C@H](C)[C@H]1CCCO has the entry -11%

Records above shown as hits in VDR inh.
SMILES | VDR inh
O=c1ccc(NS(=O)(=O)c2ccccc2Cl)cn1Cc1ccc(Cl)c(Cl)c1 | 16µM*

Next compounds follow:
SMILES | VDR inh
COc1cc(NC(=O)CN2CCN(S(=O)(=O)c3ccc(C(C)C)cc3)CC2)cc(OC)c1 | 6%
CC(=O)Nc1ccc(NC(=O)Cn2cc3c(n2)CCCC3)cc1 | 14%
CCC(C)NC(=O)C1CC(=O)N(CCc2ccc(F)cc2)C1 (stereo not drawn) | -9%
NC1=NC(c2ccc(Br)cc2)n2c(nc3ccccc32)N1 (stereo not drawn) | 19%&12%
COc1ccc(C2CC(=O)Oc3c(C(CCN4CCCCC4)c4ccc(N(C)C)cc4)c(OC)cc(OC)c32)cc1 (stereo not drawn) | -10%&2%
COc1c(CC=C(C)C)cc(C2CC(=O)c3c(O)cc(O)cc3O2)cc1CC=C(C)C (stereo not drawn) | -24%
CC(=O)Nc1ccc(C(=O)/C=C/c2ccco2)cc1 | u
O=C(O)CN1C(=O)COc2cc(S(=O)(=O)N3CCCC3)ccc21 | 4%
C/C(=N\NC(=O)c1cccnc1)c1ccc(C)c([N+](=O)[O-])c1 | 0%
CC(C)(C)Nc1nc(Nc2ccc([N+](=O)[O-])cc2)nc(NC(C)(C)C)n1 | 4%
COC(=O)/C=C1/S/C(=N/NC(=O)c2ccccc2C)NC1=O | -3%
CC(C)CN1CC(C(=O)O)CC1=O (stereo not drawn) | 9%
COc1ccc(CCN2C(=O)CC(Nc3ccc(N4CCOCC4)cc3)C2=O)cc1OC (stereo not drawn) | 10%
COc1ccccc1N(CC(=O)NCCc1ccccc1)C(=O)CCC(=O)Nc1nccs1 | -3%
O=C1C2=C(c3ccccc31)[N+](=O)[C@@H]1CCCC[C@@H]1N2[O-] | -8%
COCCN(C(=O)Cc1cccs1)C(C(=O)NCc1ccc(OC)cc1)c1ccc(C(C)C)cc1 (stereo not drawn) | -6%
Cc1cccc(OCC(=O)NCC(=O)N=Nc2c(O)[nH]c3ccc([N+](=O)[O-])cc23)c1 | -18%
COc1ccccc1CN(Cc1ccco1)S(=O)(=O)c1ccc(-n2cnnn2)c(OC)c1 | -16%
CC(=O)Nc1ccc(NC(=O)CC2(CC(=O)N3CCOCC3)CCCC2)cc1 | 0%
COc1cc(C2OC(=O)c3ccccc3S2)cc(OC)c1OC (stereo not drawn) | -17%
CC1(C)CC(=O)C2=C(C1)N(c1ncn[nH]1)C(N)=C(C#N)C2c1ccccc1 (stereo not drawn) | -8%
CSc1ncccc1C(=O)NCC12CC3CC(CC(C3)C1)C2 | 3%
CCSC[C@H](NC(=O)[C@H](C)N)C(=O)N[C@@H](CC(=O)O)C(=O)N[C@H](C(=O)N[C@@H](C)C(=O)N[C@H](C(=O)N[C@@H](CSCC)C(=O)N[C@H](C(=O)N[C@H](C(=O)N[C@@H](Cc1cnc[nH]1)C(=O)N[C@@H](CCCNC(=N)N)C(=O)N[C@@H](CC(C)C)C(=O)N[C@@H](C)C(=O)NCC(=O)N[C@@H](CC(C)C)C(=O)N[C@@H](CC(C)C)C(=O)N[C@@H](CO)C(=O)N[C@@H](CCCNC(=N)N)C(=O)N[C@@H](CO)C(=O)NCC(=O)NCC(=O)N[C@H](C(=O)N[C@H](C(=O)N[C@@H](CCCCN)C(=O)N[C@@H](CC(N)=O)C(=O)N[C@@H](CC(N)=O)C(=O)N[C@@H](Cc1ccccc1)C(=O)N[C@H](C(=O)N1CCC[C@H]1C(=O)N[C@H](C(=O)N[C@@H](CC(N)=O)C(=O)N[C@H](C(=O)NCC(=O)N[C@@H](CO)C(=O)N[C@@H](CCCCN)C(=O)N[C@@H](C)C(=O)N[C@@H](Cc1ccccc1)C(N)=O)C(C)C)[C@@H](C)O)C(C)C)C(C)C)C(C)C)[C@@H](C)O)C(C)C)[C@@H](C)O)[C@@H](C)O | 10%
CCOC(=O)C(CC)n1nnc2sc(-c3ccccc3)cc2c1=O (stereo not drawn) | 4%
O=C(O)C1CSC(c2ccco2)N1 (stereo not drawn) | -2%
Cc1cccc(NC(=O)CCN2CCN(C)CC2)c1 | -7%
Fc1cccc(NC(=S)NC2CCCCCCC2)c1 | 50%[activator]
O=C(Cn1ccc(NC(=O)OCc2ccccc2)nc1=O)NCCCN1CCCC1=O | -6%
COc1ccccc1/C=C/c1nc(C#N)c(NC(C)c2ccccc2)o1 (stereo not drawn) | -1%
Cc1nc2cc(C(=O)OCC(=O)NC3CCS(=O)(=O)C3)ccc2n1-c1ccccc1 (stereo not drawn) | -4%
Cc1ccnc(N=O)c1 | -23%
CN1CCc2c(sc3nc(SCC(N)=O)n(-c4ccccc4)c(=O)c23)C1 | 1%
Cc1cccc(NC(=O)CSc2ccc(-c3cccs3)nn2)c1C | -4%
COc1cc(/C=C2/SC(=S)N(Cc3ccccc3)C2=O)cc(OC)c1O | 1%
COc1cc(CCC(=O)OCC(=O)N(CCC#N)c2ccccc2)cc(OC)c1OC | 22%
COc1ccccc1NC(=O)Cc1noc(CSc2cc(C)c3ccccc3n2)n1 | -6%
O=C(Nc1ccc(Br)cc1)C1CCCC1 | -12%
O=C(Nc1ccc(Cl)c(Cl)c1)N1CCCCCC1 | 2%
Cc1ccnc(NS(=O)(=O)c2ccc(NC(=O)c3cncc(Br)c3)cc2)n1 | -3%
CCC(CC)C(=O)Nc1cccc(C(=O)NCCc2ccccc2)c1 | -14%
O=C(CNC(=S)N(Cc1ccccc1F)C1CCCCC1)NC1CC1 | 1%
CCOc1ccc(NC(=O)CN(C)C(=O)c2cccc(S(=O)(=O)N3CCCC3)c2)cc1OCC | 3%
CCOC(=O)c1ccc(NC(=O)CSc2ccc(-c3ccccn3)nn2)cc1 | -7%&0%
COC(=O)c1ccc2nc(Nc3nc4c(F)cc(F)cc4s3)sc2c1 | -28%
CCc1nccn1S(=O)(=O)c1ccc(OC)c(C)c1C | 29%
COC(=O)c1nn(-c2ccccc2)c(Cl)c1/C=N/O | -7%
COC(=O)c1ccc(S(=O)(=O)N(C2CCCCC2)C2CCCCC2)n1C | 1%
COc1ccc(C)cc1S(=O)(=O)N(CC(=O)O)c1ccc(F)cc1 | 9%
O=C(NCC(=O)N1CCN(c2ccccc2)CC1)c1ccc(Cl)cc1 | 1%
C=CCSc1nc(N)c2c3c(sc2n1)CN(C)CC3 | 11%
O=C(O)c1ccc(Oc2ccc(C(F)(F)F)cn2)cc1 | 4%
O=C1CCCc2nc(N3CCCCC3)sc21 | -3%
N#C/C(=C/C=C/c1ccccc1)C(=O)Nc1ccccc1 | 0%
Cc1ccc(CSc2ccc(C(=O)N3CCOCC3)cc2[N+](=O)[O-])cc1 | -11%
N/C(=N\OC(=O)c1cc(-c2ccccc2)nc2ccccc12)c1ccncc1 | -7%
Cc1ccc(NC(=O)CCCN2C(=O)COc3ccc(C)cc32)c(Cl)c1 | 9%
COc1ccccc1CN1CC(C(=O)NCCCc2ccc(F)cc2)CCC1=O (stereo not drawn) | 18%
Cn1c(C(=O)N2COCC2(C)C)cc2c(=O)n3ccccc3nc21 | -8%
Cc1cccc2sc(NC(=O)C3=NN(c4ccccc4)C(=O)CC3)nc12 | -8%
COCCn1c(=O)[nH]c2cc(C(=O)OC)ccc2c1=O | 4%
(next part)
SMILES | VDR inh
Cc1ccc(C)c(C(=O)COc2ccc(C)nc2[N+](=O)[O-])c1 | -1%
Cc1nc(/C(=N/O)C(N)=O)cs1 | -7%
Cc1cccc(N2CCN(c3c4c(nc5nncn35)CCC4)CC2)c1C | 11%
CCSc1nnc(NC(=O)Cc2ccc(OC)c(S(=O)(=O)N3CCOCC3)c2)s1 | 2%
COc1ccc(OCC(=O)N/N=C/C2CC=CCC2)cc1 (stereo not drawn) | -2%
COc1ccccc1CC(=O)Nc1ccc(-c2nnc(-c3ccco3)o2)cc1 | -4%
Cc1cc(O)c(-c2cc(C(=O)Nc3ccc(S(=O)(=O)N4CCOCC4)cc3)[nH]n2)cc1C | -1%
CCc1ccc(N(C(=O)c2csnn2)C(C(=O)NC2CCCCC2)c2cccnc2)cc1 (stereo not drawn) | 14%
Cc1cccc(N2C(=O)C(CC(=O)Nc3ccccc3)N(C3CCCCC3)C2=O)c1 (stereo not drawn) | -22%
Cc1ccc(F)cc1NC(=O)CSc1nnc(CNC(=O)c2ccco2)n1C | -9%
Cc1cc(C)cc(N(CC(=O)NCc2ccco2)C(=O)CCC(=O)Nc2ccccn2)c1 | -4%
CC1(C)Oc2ccc(C(=O)NC3CCCC3)cc2N(CC(=O)NC2CCCCC2)C1=O | 0%
COc1ccc(Oc2ncc3nc(-c4cccc(C#N)c4)c(=O)n(Cc4cccc(OC)c4)c3n2)cc1 | -2%
O=C(/C=C/Nc1ccc(F)cc1)c1ccco1 | 7%
CCOC(=O)c1cc(C#N)c(SC)nc1C | 8%

Some of these compounds in order of count of non-hydrogen atoms, descending.
SMILES | VDR inh
COc1ccc(Oc2ncc3nc(-c4cccc(C#N)c4)c(=O)n(Cc4cccc(OC)c4)c3n2)cc1 | -2%
COc1ccccc1CC(=O)Nc1ccc(-c2nnc(-c3ccco3)o2)cc1 | -4%
Cc1nc(/C(=N/O)C(N)=O)cs1 | -7%

Following part.
SMILES | VDR inh
COc1ccc(/C=N/NC(=O)c2cccnc2)c(C(=O)O)c1OC | -27%
CCOc1c(Cl)cc(CNCC(C)C)cc1OC | 1%
CCN(CC(=O)Nc1cc(Cl)ccc1C)C(=O)c1cc([N+](=O)[O-])ccc1N1CCOCC1 | 17%
COc1ccc(C(CC(=O)O)n2cnnn2)cc1 (stereo not drawn) | -7%
Cc1ccc(SCCc2cc[n+](CC(=O)c3ccccc3)cc2)cc1 | -21%
